Screening results from PubChem BioAssay.
MT1-MMP act inh – inhibitors of human MT1-MMP activation; P50281; HT1080 RFP-PRO-GFP cells, GFP/RFP ratio fluorescence, overnight; percent of plate control window, DMSO zero; GFP/RFP ratio change, % at 20 µM; 360,000 tested, 0.061% active; AID 651647;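 active = GFP/RFP ratio change of at least 30% with cell ATP level not reduced by more than half and red fluorescence within 50% of control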; also: strong numbers were not always called active
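Compound: 20 µM single dose, 1% DMSO / System: HT1080 RFP-PRO-GFP cells / Controls: DMSO and RFP-L50D-GFP cell wells / Read-out basis: GFP/RFP fluorescence ratio / Schedule: overnight compound exposure at 37 °C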
PABP FP inh – PABP-poly(A) binding inhibition. PABP-poly(A) RNA binding, fluorescence polarization. inhibition, % at 35 µM. 290,000 tested, 1% active;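 active = 50% or more with normal probe brightness, or confirmed in later tests; inconclusive = above 50% with abnormal brightness, or retests that disagree; inactive = below 50% or failed in later tests; about a fifth of its hits are not listed in these tables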;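 also: calls also rest on retests at 20 µM and on dose response follow-up; controls were probe without protein and protein plus probe with vehicle; some compounds called inactive have numbers as strong as hits; many hits fall short of the cut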
Target sequence (P11940 whole entry, looked up): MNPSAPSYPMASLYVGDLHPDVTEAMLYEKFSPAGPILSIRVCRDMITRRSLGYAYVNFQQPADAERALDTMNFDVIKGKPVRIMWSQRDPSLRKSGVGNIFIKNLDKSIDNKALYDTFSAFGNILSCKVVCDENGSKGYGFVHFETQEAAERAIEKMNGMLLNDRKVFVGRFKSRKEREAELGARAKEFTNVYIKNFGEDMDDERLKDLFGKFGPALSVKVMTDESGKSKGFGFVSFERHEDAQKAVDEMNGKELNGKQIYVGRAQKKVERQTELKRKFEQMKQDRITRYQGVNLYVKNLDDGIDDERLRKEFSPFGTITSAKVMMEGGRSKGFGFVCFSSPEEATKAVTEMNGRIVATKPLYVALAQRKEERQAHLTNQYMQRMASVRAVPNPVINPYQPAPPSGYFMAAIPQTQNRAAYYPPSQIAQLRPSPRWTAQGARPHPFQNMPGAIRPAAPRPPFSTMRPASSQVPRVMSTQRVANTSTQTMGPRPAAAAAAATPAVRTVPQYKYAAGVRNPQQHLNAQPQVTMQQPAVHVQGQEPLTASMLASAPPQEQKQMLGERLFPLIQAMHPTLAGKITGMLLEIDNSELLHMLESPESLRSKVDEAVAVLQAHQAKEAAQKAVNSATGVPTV
eIF4H inh – inhibitors of RNA binding by human eIF4H. Q15056. eIF4H fluorescence polarization binding assay. inhibition, % at 35 µM. 290,000 tested, 0.94% active;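 active = 50% or more with normal probe brightness, or confirmed in later tests; inconclusive = above 50% with abnormal brightness, or retests that disagree; inactive = below 50% or failed in later tests; about a fifth of its hits are not listed in these tables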;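 also: calls also rest on retests at 20 µM and on dose response follow-up; 0% = protein and probe with vehicle and 100% = probe without protein; strong numbers were not always called active; many hits fall short of the cut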
CSC inhib – blocks cancer stem cells; cancer stem cell-like cells viability, luminescence; inhibition, % at 7.5 µM; 300,000 tested, 1.1% active;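 active = mean at 75% or more and at least half the replicates too; inconclusive = mean and replicates disagree; tested in HMLE shEcad cells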;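 also: 0% = median of negative and 100% = median of positive control wells; the first replicate is given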
HIV Env fusion – blocks HIV Env-driven cell-cell fusion. AID 651610. inhibition, % at 12.3 µM. HeLa-JRFL Env/CEM21 cell fusion, luciferase. 360,000 tested, 1.1% active;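 active = mean replicate inhibition score of at least 50 and every replicate individually at or above 50; inconclusive = only one of the two criteria met; inactive = mean below 50 and not all replicates reaching 50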;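 also: 0% = plate neutral controls and 100% = maraviroc near 300 nM; one replicate is shown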
Rce1 inhib – blocks yeast Ras-converting enzyme; Q03530; yeast membranes, quenched prenylated peptide cleavage fluorescence; calls only; 290,000 tested, 0.27% active;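 active = fall in fluorescence gain of 50% or more versus controls, with final raw signal at or below 3038400; inconclusive = same 50% fall but final raw signal above 3038400; inactive = fall in fluorescence gain under 50%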;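 also: plate controls were neutral control wells for no effect and wells lacking membranes for full effect; tested at 10 µM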
Yeast UUG start – modulators of start codon recognition fidelity in yeast; 350,000 tested, 0.13% active; S. cerevisiae UUG-firefly luciferase reporter, luminescence/redox ratio; activity score, % at 18.7 µM; AID 602363;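 active = replicate mean at a twofold rise or more, about +100% in these data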;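 also: firefly luciferase made from a UUG start codon reports start codon fidelity; reporter light over untreated wells divided by growth signal over untreated wells; some hits fall short of that in this replicate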
eIF4H inh retest – recorded beside eIF4H inh, whose call it bears; inhibition, %; compound at 20 µM; confirmation average;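 mean of two retest wells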
PABP FP inh retest – recorded beside PABP FP inh, whose call it bears; inhibition, %; compound at 20 µM; confirmation repeats;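 mean of two retest wells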
MT1-MMP act inh RFP – also measured in MT1-MMP act inh; calls as there; RFP signal change, %; measured here: RFP expression control read;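 0 = vehicle wells; hits needed this value within 50% of zero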
* hit, by the source's call; i = inactive; u = inconclusive; x = no result given.

SMILES	MT1-MMP act inh	MT1-MMP act inh RFP	PABP FP inh	eIF4H inh	CSC inhib	HIV Env fusion	Rce1 inhib	Yeast UUG start	others
Cc1cccc(C(=O)O/N=C(\N)c2ccc(Br)cc2)c1	-3	1	6	-4	-13	x	x	x
O=C(NCCN1CCCC1)C1CCN(S(=O)(=O)N2CCC3(CC2)OCCO3)CC1	-4	0	-1	2	-4	x	i	-12
O=C(CN1CCCC1)N1CCCc2c1c(=O)oc1ccc(OCc3ccccc3)cc21	51*	-10*	4	-8	6	11	i	-7
O=C(CCNC(=O)c1ccc(Br)cc1)NCCCSc1ccccc1	-2	-5	x	x	3	x	i	x
C/C=C(\C)C(=O)NCCN1C2=NC[C@H](C(C)C)N2C[C@H]1Cc1ccc(O)cc1	2	4	0	-13	-6	-15	i	-5
Cc1ccc2oc(=O)cc(CN3CCN(Cc4ccccc4)CC3)c2c1	2	2	2	5	-7	-20	i	4
COc1cc(NC(=O)COC(=O)c2ccc(C)c(S(=O)(=O)N3CCCCC3)c2)c(C)cc1[N+](=O)[O-]	20	-3	6	19	-6	26	i	-13
COc1ccc(NC(=O)C2Cc3c(-c4cccc(C(C)=O)c4)ccnc3O2)cn1 (stereo unspecified)	8	-8	x	x	x	-10	x	-8
Cc1ccccc1C(=O)Nc1nnc(-c2ccc(F)cc2)o1	6	3	18	12	24	9	i	4
COc1ccc(CCCc2nnc(SCc3nc4ccccc4c(=O)[nH]3)n2C)cc1C	7	2	76	3	-13	7	i	-19	eIF4H inh retest=-2;PABP FP inh retest=8
Cc1nnc(NC(=O)CCC(=O)NCc2cccs2)s1	3	3	-3	-7	-16	-27	i	-11
O=C(CSc1nnc(-c2ccco2)n1Cc1ccccc1)OC1CCCCC1	-2	-3	-8	-7	-3	-13	i	-7
CC(=O)Nc1cc2cc(NS(=O)(=O)c3ccc(Cl)cc3)ccc2oc1=O	4	-3	6	2	-4	-2	i	9
CCn1c(=O)n(CC)c2cc(S(=O)(=O)N3CCc4ccccc43)ccc21	0	-17	6	-11	7	x	i	-10
COC(=O)Cc1ccc(NC(=S)NCCCN2CCOCC2)cc1	1	4	2	4	-9	10	i	-26
CC(C)NC(=O)CSc1nc2ccccc2n1-c1ccccc1	-3	0	-2	2	x	6	i	-2
COc1nc(N/N=C/c2cc3c(cc2Br)OCO3)nc(N2CCOCC2)n1	-1	-1	-11	-4	-12	-4	i	-11
CC(C)CCOC(=O)C1C2C=CC3(CN(Cc4cccs4)C(=O)C13)O2 (stereo unspecified)	-2	0	-6	-16	8	12	i	-10
CCN(CC)C(=O)c1oc2ccc(S(=O)(=O)N3CC(C)CC(C)C3)cc2c1C (stereo unspecified)	-5	-30	4	-12	-5	14	i	-4
O=P(O)(O)c1ccccc1OCc1ccccc1	1	4	26	0	-20	x	i	-5
COc1cccc(/C=C/C(=O)OCC(=O)c2ccc3c(c2)NC(=O)CO3)c1OC	3	-14	0	-7	-2	14	x	-7
O=C(NC(Cc1ccccc1)C(=O)O)/C(=C\c1cccc([N+](=O)[O-])c1)NC(=O)c1ccco1 (stereo unspecified)	-3	-2	-13	-2	-11	7	i	-4
CCOC(=O)[C@@H]1[C@H]2COc3ccc(Br)cc3[C@H]2N2C(=O)N(c3ccc(C(F)(F)F)cc3)C(=O)[C@]12C	-2	-9	x	x	8	-17	x	-19
COc1ccc(S(=O)(=O)ON=C2CC(C)(C)N(C(C)=O)C(C)(C)C2)cc1	0	1	7	-11	-6	6	i	x
CC1(C)CC(=O)C(C=NCCN2CCN(C(=S)Nc3ccc(F)cc3)CC2)=C(O)C1	1	-4	-4	-8	15	4	i	-24

Later entries:
SMILES	MT1-MMP act inh	MT1-MMP act inh RFP	PABP FP inh	eIF4H inh	CSC inhib	HIV Env fusion	Rce1 inhib	Yeast UUG start	others
Cc1cc(C(=O)Nc2ccc(C(=O)O)cc2)c(C)o1	0	0	12	-8	x	-14	i	-10
N#Cc1cccc(NC(=O)CN2C(=O)NC(Cc3ccccc3)C2=O)c1 (stereo unspecified)	-9	2	6	1	-10	2	i	x
Cc1ccc(NC(=O)CSc2nnc(CNC(=O)c3ccco3)n2C)cc1	4	5	x	x	2	-41	i	-16
CCN1CCCC1CNC(=O)c1c(O)c2c([nH]c1=O)CCCC2 (stereo unspecified)	-1	-3	-1	-2	-5	-22	i	0
Cc1sc(NC(=O)c2ccccc2)c(C(=O)NCCN(C)C)c1C	3	0	-10	-2	-2	-42	i	-15
O=C(Cc1ccon1)c1ccc(O)cc1O	-4	-5	7	6	-6	-16	i	-23
O=C(CN1C(=O)c2ccccc2C1=O)NCc1ccc(C(=O)O)cc1	1	2	15	3	12	5	i	1
Oc1ccccc1-c1nc(NCc2ccccc2)c2ccccc2n1	-4	-3	-2	-5	29	-9	i	-12
O=c1c([N+](=O)[O-])c(N2CCCC2)c2ccccc2n1-c1ccccc1	-1	3	2	-3	-16	-10	i	-13
CC(Cc1cccs1)NC(=O)Nc1ccc(Cl)cc1 (stereo unspecified)	9	-10	-16	3	9	-57	i	-7
CCCN1C(=O)/C(=C\C=C2\N(CC)c3ccccc3C2(C)C)SC1=S	-20	62	u	u	x	11	i	-17
CCOc1ccc(NS(=O)(=O)c2ccc(NS(C)(=O)=O)cc2)cc1	2	-6	3	-10	-2	x	i	-5
Cc1cc(C)nc(SCCCNCc2c(F)cccc2Cl)n1	0	6	14	6	-16	32	i	11
CCN(CC)C(=O)Cn1cc(S(=O)(=O)CC(=O)NCCc2ccc(OC)c(OC)c2)c2ccccc21	-1	4	10	-6	0	13	i	11
CC(=O)Oc1c(C)c(=O)n(C)c2ccccc12	1	6	-7	-8	2	x	i	-26
CC(=O)C1=C(C)Nc2ncnn2C1c1ccc(O)cc1 (stereo unspecified)	-3	2	3	-4	11	0	i	-17
CCOC(=O)C1CCCN(S(=O)(=O)c2ccc3c(c2)NC(=O)CO3)C1 (stereo unspecified)	3	-4	7	-2	x	0	i	-4
NS(=O)(=O)c1cccc(NC(=O)CCN2C(=O)C3CCCCC3C2=O)c1 (stereo unspecified)	3	8	x	x	x	-6	x	-5
C=CCNC(=S)NNC(=O)c1ccc(OC(C)C)cc1	3	0	1	5	-3	-123	i	-16
C=CCc1c(C)nc(C)nc1N/N=C/c1ccccc1O	0	2	8	10	-1	-59	i	-41
O=S1(=O)N=C(N/N=C/C=C/c2ccccc2)c2ccccc21	-1	3	5	14	24	-4	i	28
CCOc1ccccc1N1C(=O)CC(Sc2ccccc2N)C1=O (stereo unspecified)	1	-2	x	x	x	3	x	-20
C=C(C)CNC(=S)Nc1cccc(S(=O)(=O)NC2=NCCC2)c1	3	5	1	-12	-12	-7	i	-18
COc1ccc(CCC(=O)N(C)CC(=O)Nc2ccc(N3CCOCC3)cc2)cc1	3	3	0	-15	-6	2	x	11
O=C(Nc1nnc(C2CCCCC2)s1)c1cccs1	3	-1	-3	-11	-3	-88	i	-7

Retrieved one by one from the list above, 3 records:
SMILES	MT1-MMP act inh	MT1-MMP act inh RFP	PABP FP inh	eIF4H inh	CSC inhib	HIV Env fusion	Rce1 inhib	Yeast UUG start	others
Cc1cccc(C(=O)O/N=C(\N)c2ccc(Br)cc2)c1	-3	1	6	-4	-13	x	x	x
C=CCc1c(C)nc(C)nc1N/N=C/c1ccccc1O	0	2	8	10	-1	-59	i	-41
CCOC(=O)C1CCCN(S(=O)(=O)c2ccc3c(c2)NC(=O)CO3)C1 (stereo unspecified)	3	-4	7	-2	x	0	i	-4

Remaining list, next part:
SMILES	MT1-MMP act inh	MT1-MMP act inh RFP	PABP FP inh	eIF4H inh	CSC inhib	HIV Env fusion	Rce1 inhib	Yeast UUG start	others
Cc1cccc(NC(=O)CCC(=O)c2cccs2)n1	-10	-4	x	x	10	-23	i	-32
O=[N+]([O-])c1ccc2nc(C(O)C(O)c3nc4ccc([N+](=O)[O-])cc4[nH]3)[nH]c2c1 (stereo unspecified)	1	0	-3	-5	4	-4	i	-23
CC(C)=C1SC(N2CCN(c3cccc(C(F)(F)F)c3)CC2)=NC1=O	2	-4	-4	5	28	6	i	-18
Cc1cccc(-c2nnc(SCC#N)n2-c2ccccc2)c1	2	2	-2	7	-10	-17	i	-19
COc1cc(C(=O)NNC(=O)c2ccc(NC(C)=O)cc2)cc(OC)c1OC	2	2	-11	-7	-4	-4	x	-8
Cc1ccc(C(=O)COC(=O)CNC(=O)COc2ccccc2C)cc1C	-3	-4	-5	-5	-4	-16	i	0
CC(C)(C)NC(=O)c1ccccc1NC(=O)c1ccc2c(c1)OCO2	-3	-1	-6	-15	x	-7	i	-17
Cc1c(C(=O)NC2CCCc3ccccc32)oc2ccc(S(=O)(=O)N3CCCCC3)cc12 (stereo unspecified)	-1	0	2	7	0	1	i	-7
CCCCCCCCC1=NCCc2c1[nH]c1ccccc21	-9	2	12	-9	34	19	i	4
CCCCCCCCN1C(=O)N(C)C(N(O)C(=O)NC)C1(C)C (stereo unspecified)	-2	-1	-9	-6	1	x	i	9
COc1ccccc1/C=C/c1nc2ccccc2c(=O)o1	0	-3	x	x	-13	-42	i	-25
COc1ccc(C2=NN(C(=O)c3ccccc3)C(c3ccc(OC)c(OC)c3)C2)cc1OC (stereo unspecified)	-3	-1	0	-4	x	19	i	-16
COC(=O)Cn1c2ccc(C)cc2c2nc(C)sc21	0	3	2	2	x	-17	i	x
CSc1nc(-c2ccccc2)nc(N2CCN(C)CC2)c1C(C)=O	-4	-4	9	1	-13	x	i	-4
C=CCSc1nc2c(cnn2-c2ccccc2)c(=O)n1N	0	-5	0	-6	-14	-17	i	-10
COc1cc(=O)n2c(n1)SCCC2	-1	6	-3	0	-5	x	i	-14
O=C(Cn1c(=O)oc2ccccc21)NCC1COc2ccccc2O1 (stereo unspecified)	2	4	0	49	1	1	i	2
Cc1ccccc1C1CC(=O)c2ccccc2C1C (stereo unspecified)	-6	-1	x	x	x	-6	x	-9
COc1ccccc1C(=O)NCC(=O)NCc1cc(=O)n(C)c(=O)n1C	0	1	1	-13	-9	-5	i	0
Cc1ccsc1/C=C1\CCc2ccccc2C1=O	-2	-2	6	10	1	-474	i	x
CC(=O)Nc1ccc(-c2ccnc3c2CC(C(=O)NCC2CCOCC2)O3)cc1 (stereo unspecified)	-4	-7	x	x	x	-83	x	-10
Cc1nn(C)c(Oc2cccc(Cl)c2)c1C=O	-8	-1	-5	1	-19	9	i	-15
COC(=O)C1(C)CC1(c1ccccc1)c1ccccc1 (stereo unspecified)	x	x	7	3	0	11	i	-26
CCOC(=O)c1c(CC(C)C)csc1NC(=O)COC(=O)c1cnc(C)cn1	-2	-3	x	x	x	1	x	-5
Cc1ccc(N=Nc2c(O)[nH]c(=O)[nH]c2=O)cc1S(=O)(=O)Nc1ccc(Br)cc1	5	-4	x	x	-5	35	x	-8

(continued)
SMILES	MT1-MMP act inh	MT1-MMP act inh RFP	PABP FP inh	eIF4H inh	CSC inhib	HIV Env fusion	Rce1 inhib	Yeast UUG start	others
CN(Cc1ccccc1)C(=O)Cn1c(=O)oc2cc(S(=O)(=O)NCc3ccccc3)ccc21	4	-21	-4	-7	-2	-17	i	12
O=C(O)c1ccc(N=NNc2cccc([N+](=O)[O-])c2)cc1	0	-4	-2	6	24	-41	i	3
Cc1ccc(S(=O)(=O)N2CCCCC2CCNC(=O)C(=O)NCc2ccncc2)cc1 (stereo unspecified)	-5	-8	x	x	7	2	i	x
c1ccc(-n2cccc2CNC2CCCCC2)cc1	x	x	0	-2	20	x	i	x
CCOC(=O)c1c(C)oc2c1c(C(c1cccnc1)N1CCCCC1)c(O)c1ccccc12 (stereo unspecified)	-1	2	3	3	29	x	i	x
CN(C(=O)c1ccccn1)c1nnc(-c2ccccn2)s1	0	-1	-9	-1	-4	x	i	-64
